# Source: PubChem BioAssay
# Cruzain inh Det = blocks cruzain activity in presence of Triton detergent; AID 1478; Potency, µM, for the others: max response, negative = inhibition, actives largely listed as inhibitors; purified cruzain, Z-FR-AMC fluorescence, 0.01% Triton; 200,000 compounds, 0.43% hits; P25779;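 further: plate controls were neutral wells for no effect and buffer without enzyme for full effect; nearly all actives have a fitted effect of over 40% in size; top concentration of the series not given in the record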
# Target sequence (P25779 123-467 limits assumed): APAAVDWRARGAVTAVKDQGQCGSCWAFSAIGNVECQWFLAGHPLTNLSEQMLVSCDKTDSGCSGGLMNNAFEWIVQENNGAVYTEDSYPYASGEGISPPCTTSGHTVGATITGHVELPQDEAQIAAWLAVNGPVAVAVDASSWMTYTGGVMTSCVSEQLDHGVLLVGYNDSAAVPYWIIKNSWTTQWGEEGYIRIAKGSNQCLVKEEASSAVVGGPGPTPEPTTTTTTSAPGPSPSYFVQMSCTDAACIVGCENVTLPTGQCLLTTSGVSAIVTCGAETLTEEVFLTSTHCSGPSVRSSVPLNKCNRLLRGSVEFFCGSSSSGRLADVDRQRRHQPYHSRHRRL
#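 Sodium acetate buffer (100 mM, pH 5.5) containing 5 mM DTT and 0.01% Triton X-100 hosted 1.5 nM cruzain and test compound for 15 min at room temperature. Cleavage of 2 uM Z-FR-AMC was then tracked by fluorescence.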
# Marburg entry inh = inhibitors of Marburg virus binding or cell entry; 300,000 compounds, 1.8% hits; Marburg virus pseudotyped entry inhibition, cell reporter; control for the full effect not named in the record; about a third of the inactives were read at about 46 µM; Potency, µM (titrated, usually from 37.8 µM), without a hit: top-dose activity change, negative = inhibition, actives largely listed as inhibitors; AID 540276; active = well fitted inhibition curve with a large enough effect; inconclusive = small, poorly fitted or top-dose-only effect, or effect the other way; inactive = flat fitted curve, though single readings scatter; tested in HEK293 cells; about a fifth of its hits are not listed in these tables; further: on the % scale 0 is the no-effect control and ±100 the full control effect; luciferase read-out
# RE007 growth inh = less growth of the S. pombe RE007 Vpr strain | S. pombe RE007 Vpr strain, BacTiter-Glo ATP luminescence, 24 h; control for the full effect not named in the record | Potency, µM (titrated, usually from 92.2 µM), for inactives: top-dose activity change, negative = less growth | 360,000 compounds, 0.21% hits | AID 651644; active = well fitted falling curve with a large enough effect; inconclusive = small, poorly fitted or top-dose-only effect; inactive = no such curve, though single readings can be large or run the other way;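 further: on the % scale 0 is the no-effect control and ±100 the full control effect; nearly all actives have a fitted effect of over 50% in size; the assay follows cell death caused by Vpr and the record does not say whether a fall means rescue or toxicity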
#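 Fission yeast RE007 carrying one integrated HIV-1 vpr copy, seeded at OD 0.01 in PMG+AL medium with 23 nL pinned compound. Grown 24 h at 30 degrees; viability read by BacTiter-Glo luminescence after 5 min.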
# LASV entry inh = Lassa virus entry inhibition | 300,000 compounds, 1.2% hits | Potency, µM (titrated, usually from 37.9 µM), without a hit: top-dose activity change, negative = inhibition, hits mostly inhibitors | Lassa virus pseudotype entry inhibition, cell reporter; control for the full effect not named in the record; active means well fitted inhibition curve with a large enough effect; inconclusive means small, poorly fitted or top-dose-only effect, or effect the other way; inactive means flat fitted curve, though single readings scatter; tested in HEK293 cells; further: on the % scale 0 is the no-effect control and ±100 the full control effect; nearly all actives have a fitted effect of over 50% in size; luciferase read-out
# Cruzain noTriton = blocks cruzain activity in detergent-free assay. purified cruzain, Z-FR-AMC fluorescence, no detergent. Potency, µM, for the others: max response, negative = inhibition, usual class: inhibitors. 200,000 compounds, 2.3% hits;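 further: plate controls were enzyme without inhibitor for no effect and buffer without enzyme for full effect; nearly all actives have a fitted effect of over 40% in size; top concentration of the series not given in the record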
#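 Detergent-free condition (0.00005% Triton X-100) in acetate buffer pH 5.5 with DTT. 1.5 nM enzyme and compound were pre-mixed 15 min, then 2 uM Z-FR-AMC substrate added; reaction progress from fluorescence change between first and third reads (60 s).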
# NS1 inh = influenza NS1 inhibition; S. cerevisiae slowed by influenza A NS1, growth recovery by OD600; Potency, µM (titrated, usually from 46.1 µM), inactives show top-dose activity, positive = more growth; AID 2326; 270,000 compounds, 0.4% hits; active means well fitted rising curve with a large enough effect; inconclusive means small, poorly fitted or top-dose-only effect; inactive means no such curve, though single readings can be large or run the other way; further: nearly all actives have a fitted effect of over 50% in size
#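 In this qHTS, NS1 from influenza A is expressed in budding yeast, where it slows growth. Cells are switched from glucose to 2% galactose medium (pH 6.0, -URA), treated with compound, and growth recovery is read at OD600.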
# SARS PLpro yeast = blocks SARS-CoV papain-like protease in a yeast assay | 330,000 compounds, 0.19% hits | Potency, µM (series often up to 32.9 µM), for inactives: at the highest dose activity, positive = growth rescue | S. cerevisiae expressing SARS-CoV PLpro, growth rescue; control for the full effect not named in the record; active means well fitted rising curve with a large enough effect; inconclusive means small, poorly fitted or top-dose-only effect; inactive means no such curve, though single readings can be large or run the other way; further: 0% is about no effect; nearly all actives have a fitted effect of over 55% in size; growth read by luminescence after 48 h
# 2A StopGo = lowers the luciferase signal of an FMDV 2A StopGo reporter. human cells with a luciferase reporter of 2A StopGo recoding; control for the full effect not named in the record. 410,000 compounds, 1.2% hits. Potency, µM (titrated, usually from 57.9 µM), for the others: top-dose signal change, negative = less light; active = well fitted falling curve with a large enough effect; inconclusive = small, poorly fitted or top-dose-only effect; inactive = no such curve, though single readings can be large or run the other way; tested in HEK293T cells; further: on the % scale 0 is the no-effect control and ±100 the full control effect; nearly all actives have a fitted effect of over 45% in size; luciferase light after 4 h
# * marks the source's active call; other numbers are inactive results; ? = inconclusive; . = no result given; [ ] = dose if it differs, or a comment. Unless noted, the call rests on the fitted dose curve; in most records, active means well fitted curve in the direction sought with a large enough effect; inconclusive means small, poorly fitted or top-dose-only effect, or another doubt; inactive means no such curve, though single readings can be large; an effect the other way counts as inactive or inconclusive. Potency means the concentration at half of the fitted maximal effect.
# Assay codes – A = Cruzain inh Det; B = Marburg entry inh; C = RE007 growth inh; D = LASV entry inh; E = Cruzain noTriton; F = NS1 inh; G = SARS PLpro yeast; H = 2A StopGo
COc1ccc(O[C@H]2C=C[C@@H](c3ccccc3)O[C@@H]2CO/N=C/C[C@@H]2C=C[C@H](OC(C)=O)[C@@H](COC(C)=O)O2)cc1
  A: -6.7%; B: -6%; C: .; D: -29%; E: ?; F: -6%; G: 2%; H: .
CCC(C)NC(=O)CSc1c2c(nc3ccccc13)CCCC2 (stereo not given)
  A: .; B: ?; C: -3%; D: -26%; E: .; F: .; G: 2%; H: 25µM*
COc1ccc(NC(=O)CC(CC(=O)O)c2cc(OC)c(OC)c(OC)c2)cc1 (stereo not given)
  A: .; B: 2%; C: 7%; D: 5%; E: .; F: 4%; G: 1%; H: -2%
Cc1ccccc1C(=O)N1CCC(C(=O)Nc2ccc3c(c2)OCO3)CC1
  A: -1.1%; B: 27%; C: 5%; D: 0%; E: -9%; F: 7%; G: -17%; H: 11%
CC(=O)Nc1ccc(N2C(=O)c3ccc(C(=O)Nc4nnc(SCc5ccc(F)cc5)s4)cc3C2=O)cc1
  A: .; B: .; C: -2%; D: .; E: .; F: 6%; G: 1%; H: -4%
CN1CCC(CNC(=O)Nc2ccccc2)(c2ccccc2)CC1
  A: .; B: -4%[46.1 µM]; C: 10%; D: 2%[46.1 µM]; E: .; F: -8%; G: -12%; H: 8%
S=c1[nH]nc(-c2ccc(Cl)cc2)n1-c1cccnc1
  A: .; B: .; C: 23%; D: .; E: .; F: 3%; G: 1%; H: -5%
COc1cc(C(C(=O)NCC2CCCO2)N(C(=O)Cn2nnc3ccccc32)c2ccc(C(C)=O)cc2)ccc1O (stereo not given)
  A: .; B: ?; C: 5%; D: 2%[46.1 µM]; E: .; F: -6%; G: 1%; H: 4%
O=C(N/N=C/c1cn(-c2ccccc2)nc1-c1ccc(F)cc1)c1ccc2c(c1)OCO2
  A: 3.4%; B: ?; C: -19%; D: -18%; E: ?; F: ?; G: 1%; H: -29%
COc1ccc(S(=O)(=O)NCc2csc(C)n2)cc1
  A: 4.2%; B: ?; C: 0%; D: 3%; E: 6%; F: 3%; G: -8%; H: 17%
Cn1nnnc1NCc1c(F)cccc1Cl
  A: 3.6%; B: 6%; C: 8%; D: -5%; E: 1%; F: 0%; G: 1%; H: .
CC(=O)Nc1cccc(NC(=O)c2cccc(S(=O)(=O)N3CCN(Cc4ccccc4)CC3)c2)c1
  A: .; B: 6%; C: 1%; D: 9%; E: .; F: .; G: 7%; H: -11%
CCOc1ccc(C(=O)N2CCC(c3ccncc3)CC2)cc1
  A: 4.0%; B: .; C: .; D: -28%[46.1 µM]; E: -8%; F: .; G: .; H: -7%
Cc1ccc2cc3c(NC(=O)C4CCCO4)nn(CC(C)C)c3nc2c1 (stereo not given)
  A: -8.9%; B: 15%; C: -22%; D: -19%; E: ?; F: 14%; G: 10%; H: -9%
O=C(COC(=O)c1ccccc1Br)Nc1cc(S(=O)(=O)N2CCOCC2)ccc1N1CCCC1
  A: .; B: -11%[14.2 µM]; C: 6%; D: -2%; E: .; F: 3%; G: 1%; H: -17%
COCCCn1c(=O)/c(=C\c2ccccc2OC(F)F)s/c1=C(/C#N)C(=O)NC(C)C
  A: -7.4%; B: -10%; C: -19%; D: -7%; E: ?; F: -7%; G: 7%; H: 0%
COc1ccc(Cn2c(C(=O)O)c(CNCc3ccc(OC)cc3OC)c3ccc(C)cc32)cc1
  A: -3.4%; B: .; C: .; D: 0%[46.1 µM]; E: -1%; F: .; G: .; H: ?
O=C(CSc1nc(C2CC2)nc2ccccc12)Nc1ccccc1
  A: .; B: ?; C: 6%; D: -5%[46.1 µM]; E: .; F: -8%; G: -2%; H: -20%
C=CSc1sc(Cl)c(N2CCOCC2)c1[N+](=O)[O-]
  A: .; B: ?; C: 8%; D: ?; E: .; F: -10%; G: 0%; H: ?
N#Cc1cc2c(=O)n3ccccc3nc2n(-c2nnc(SCc3ccccc3)s2)c1=O
  A: 1.5%; B: -7%[46.1 µM]; C: .; D: 1%[46.1 µM]; E: 3%; F: .; G: .; H: -6%
CC(C)C(C(=O)NCC1CCCO1)N(Cc1ccccc1)C(=O)CNS(=O)(=O)c1ccccc1 (stereo not given)
  A: .; B: 10%[46.1 µM]; C: 25%; D: 10%; E: .; F: 1%; G: .; H: -5%
COc1cccc(-c2noc(CCC(=O)NCC3CCCO3)n2)c1 (stereo not given)
  A: .; B: 0%[46.1 µM]; C: -6%; D: 11%[46.1 µM]; E: .; F: .; G: 1%; H: 10%
Cc1cccc(C(=O)NCc2nnc(SCC(=O)Nc3nnc(C)s3)n2C)c1
  A: .; B: 5%[46.1 µM]; C: -6%; D: 14%[46.1 µM]; E: .; F: 2%; G: 0%; H: -11%
COc1ccc(OC)c(NC(=O)c2oc3c(c2C)C(O)CC(C)(C)C3)c1 (stereo not given)
  A: .; B: -7%[46.1 µM]; C: -13%; D: ?; E: .; F: -89%; G: -7%; H: -21%
COc1ccc(/C=C(/NC(=O)c2cccs2)C(=O)NC(C)(C)C)cc1OC
  A: .; B: 2%; C: 3%; D: -2%; E: .; F: -8%; G: -2%; H: -5%

# Whole records, looked up by structure:
# COc1ccc(S(=O)(=O)NCc2csc(C)n2)cc1 across the screens: Cruzain inh Det = 4.2%; Marburg entry inh = ?; RE007 growth inh = 0%; LASV entry inh = 3%; Cruzain noTriton = 6%; NS1 inh = 3%; SARS PLpro yeast = -8%; 2A StopGo = 17%
# COc1cc(C(C(=O)NCC2CCCO2)N(C(=O)Cn2nnc3ccccc32)c2ccc(C(C)=O)cc2)ccc1O (stereo not given) across the screens: Cruzain inh Det = .; Marburg entry inh = ?; RE007 growth inh = 5%; LASV entry inh = 2%[46.1 µM]; Cruzain noTriton = .; NS1 inh = -6%; SARS PLpro yeast = 1%; 2A StopGo = 4%

# The list continues:
# Assay codes – A = Cruzain inh Det; B = Marburg entry inh; C = RE007 growth inh; D = LASV entry inh; E = Cruzain noTriton; F = NS1 inh; G = SARS PLpro yeast; H = 2A StopGo
O=C(O)CNC(=O)C12CC3CC(CC(Cl)(C3)C1)C2
  A: .; B: .; C: 10%; D: .; E: .; F: 8%; G: -2%; H: -9%
CCOC(=O)C(=O)Nc1ccccc1C(=O)OCC
  A: .; B: ?; C: 152%; D: 4%; E: .; F: -2%; G: 0%; H: -5%
COCCOC(=O)c1cc(C(=O)c2cc(Cl)ccc2O)coc1=N
  A: .; B: 0%[46.1 µM]; C: -8%; D: ?; E: .; F: .; G: 2%; H: -16%
CCOc1ccc(NC(=O)CCN2C(=O)C3CCCCC3C2=O)cc1OCC (stereo not given)
  A: .; B: -21%; C: -11%; D: 12%; E: .; F: .; G: -1%; H: -12%
O=S(=O)(NC1=NCCC1)c1cccc(NS(=O)(=O)c2ccc(OC(F)(F)F)cc2)c1
  A: -1.4%; B: -2%; C: 1%; D: -5%; E: 2%; F: 16%; G: 16%; H: 46%[activator]
CCc1nnc(NC(=O)c2sc3nc4c(cc3c2N)CCCCCC4)s1
  A: -1.2%; B: ?; C: -8%; D: ?; E: 17%; F: -1%; G: 15%; H: 8%
O=C(Nc1ccc(F)cc1)C1CCCN(S(=O)(=O)c2ccc(-n3cnnn3)cc2)C1 (stereo not given)
  A: .; B: 10%[46.1 µM]; C: 18%; D: -13%; E: .; F: 12%; G: -1%; H: -28%
CC1=C(C(=O)NCc2ccccc2)C(c2ccc(C)o2)n2ncnc2N1 (stereo not given)
  A: 3.8%; B: -15%; C: 15%; D: 0%; E: -2%; F: -1%; G: 2%; H: -10%
Nc1ccc(O)cc1C(=O)OCC(=O)c1ccc(C2CCCCC2)cc1
  A: -12%; B: ?; C: 4%; D: ?; E: 10%; F: 10%; G: 4%; H: ?
CCN(CC)CCOC(=O)c1ccc(Nc2c3c(nc4ccccc24)CCC3)cc1
  A: -13%; B: ?; C: .; D: ?; E: -7%; F: .; G: .; H: -19%
CCCn1c(SCC(=O)Nc2nc(-c3ccc(OC)cc3)cs2)nc2c1c(=O)n(C)c(=O)n2C
  A: -3.1%; B: ?; C: 53%; D: 4%; E: 8%; F: -3%; G: 14%; H: ?
CC(C)c1onc(C(=O)N(C)Cc2ccccc2)c1[N+](=O)[O-]
  A: -3.7%; B: -3%; C: 8%; D: -6%; E: 11%; F: ?; G: -1%; H: 20%
CCN(Cc1ccccc1)C(=O)Cn1c(=O)n(Cc2ccccc2)c(=O)c2c1c1cc(OC)ccc1n2C
  A: 1.1%; B: -4%[46.1 µM]; C: .; D: -4%[46.1 µM]; E: -9%; F: .; G: .; H: -16%
Cc1nn(C(=O)c2cccs2)c(C)c1CN1C(=O)c2ccccc2C1=O
  A: 1.3%; B: -17%; C: -2%; D: ?; E: 20µM*; F: 2%; G: 5%; H: 6%
S=C(NCc1ccccc1)NCc1ccc(CNC(=S)NCc2ccccc2)cc1
  A: -5.9%; B: -22%; C: 3%; D: 2%; E: -3%; F: 4%; G: 6%; H: -20%
COc1cc(C(=O)COC(=O)c2ccncc2)cc(OC)c1OC
  A: .; B: 15%[46.1 µM]; C: 6%; D: 2%[46.1 µM]; E: .; F: .; G: 3%; H: -15%
COc1ccc(-c2nnc(NC(=O)c3ccc(S(=O)(=O)N4COCC4(C)C)cc3)o2)cc1
  A: 0.1%; B: ?; C: -17%; D: ?; E: ?; F: -18%; G: -8%; H: -23%
CCCC(CCC)C(=O)Nc1ccc2c(c1)N(C(=O)CN1CCN(C)CC1)c1ccccc1CC2
  A: .; B: ?; C: ?; D: ?; E: .; F: -2%; G: 0%; H: -18%
CS(=O)(=O)Nc1ccc(C(=O)NCCSc2ccc(Cl)cc2)cc1
  A: .; B: .; C: -2%; D: .; E: .; F: 15%; G: 5%; H: -26%
CSc1ccc(/C=C/c2nc3ccccc3n2S(=O)(=O)c2cccc(Cl)c2)cc1
  A: -11%; B: -18%[46.1 µM]; C: .; D: ?; E: -1%; F: .; G: .; H: -86%
